Assay outcomes from PubChem.
Lassa entry inh: blocks Lassa virus binding to or entry into cells | 1.2% of 300,000 active | Potency, µM (highest dose often 37.9 µM), for the others: at the top dose activity change, negative = inhibition, actives largely listed as inhibitors | AID 540256 | Lassa virus pseudotype entry inhibition, cell reporter; control for the full effect not named in the record; active means well fitted inhibition curve with a large enough effect; inconclusive means small, poorly fitted or top-dose-only effect, or effect the other way; inactive means flat fitted curve, though single readings scatter; tested in HEK293 cells; note: % is set by controls: 0 for no effect and ±100 for the full control effect; nearly all actives have a fitted effect of over 50% in size; luciferase read-out
NS1 inh: blocks influenza NS1 protein function. S. cerevisiae slowed by influenza A NS1, growth recovery by OD600. AID 2326. Potency, µM (doses to about 46.1 µM), inactives show at the top dose activity, positive = more growth. 0.4% of 270,000 active; note: actives are rising curves; nearly all actives have a fitted effect of over 50% in size
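Growth recovery, yeast-based: influenza A NS1 expressed in S. cerevisiae causes slow growth, and suppressors are detected by OD600. The parent strain without NS1 is used as positive control.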
SARS PLpro yeast: inhibitors of SARS-CoV papain-like protease in yeast; Potency, µM (doses to about 32.9 µM), for inactives: top-dose activity, positive = growth rescue; 0.19% of 330,000 active; AID 485353; S. cerevisiae expressing SARS-CoV PLpro, growth rescue; control for the full effect not named in the record; note: 0% is about no effect; nearly all actives have a fitted effect of over 55% in size; growth read by luminescence after 48 h
MARV entry inh: inhibitors of Marburg virus binding or cell entry | Marburg virus pseudotyped entry inhibition, cell reporter; control for the full effect not named in the record; about a third of the inactives were read at about 46 µM | Potency, µM (highest dose often 37.8 µM), for the others: top-dose activity change, negative = inhibition, actives largely listed as inhibitors | 1.8% of 300,000 active | AID 540276; active = well fitted inhibition curve with a large enough effect; inconclusive = small, poorly fitted or top-dose-only effect, or effect the other way; inactive = flat fitted curve, though single readings scatter; tested in HEK293 cells; about a fifth of its hits are not listed in these tables; note: % is set by controls: 0 for no effect and ±100 for the full control effect; luciferase read-out
Cruzain inh Det: inhibitors of Trypanosoma cruzi cruzain with detergent; Potency, µM, for the others: max response, negative = inhibition, usual class: inhibitors; AID 1478; 0.43% of 200,000 active; P25779; purified cruzain, Z-FR-AMC fluorescence, 0.01% Triton; active = well fitted curve in the direction sought with a large enough effect; inconclusive = small, poorly fitted or top-dose-only effect, or another doubt; inactive = no such curve, though single readings can be large; an effect the other way counts as inactive or inconclusive;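 note: plate controls were neutral wells for no effect and buffer without enzyme for full effect; nearly all actives have a fitted effect of over 40% in size; top concentration of the series not given in the record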
Target sequence (P25779 123-467 limits assumed): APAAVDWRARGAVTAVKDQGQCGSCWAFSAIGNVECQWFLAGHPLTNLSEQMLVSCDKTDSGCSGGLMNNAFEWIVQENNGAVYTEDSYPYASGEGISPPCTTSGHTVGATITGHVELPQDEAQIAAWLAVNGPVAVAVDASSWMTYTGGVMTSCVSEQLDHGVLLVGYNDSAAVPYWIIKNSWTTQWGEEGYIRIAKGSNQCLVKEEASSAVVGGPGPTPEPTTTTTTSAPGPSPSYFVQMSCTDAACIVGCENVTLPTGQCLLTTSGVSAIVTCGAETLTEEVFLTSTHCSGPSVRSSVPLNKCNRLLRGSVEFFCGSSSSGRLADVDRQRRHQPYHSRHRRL
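Compounds were screened in titration against cruzain (1.5 nM) with 0.01% Triton X-100 to counter colloidal aggregation. Activity was the AMC fluorescence increase over 60 s after adding 2 uM Z-FR-AMC at pH 5.5.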
StopGo reporter: lowers the luciferase signal of an FMDV 2A StopGo reporter; human cells with a luciferase reporter of 2A StopGo recoding; control for the full effect not named in the record; Potency, µM (highest dose often 57.9 µM), inactives show at the top dose signal change, negative = less light; 1.2% of 410,000 active; AID 1159524; active = well fitted falling curve with a large enough effect; inconclusive = small, poorly fitted or top-dose-only effect; inactive = no such curve, though single readings can be large or run the other way; tested in HEK293T cells; note: % is set by controls: 0 for no effect and ±100 for the full control effect; nearly all actives have a fitted effect of over 45% in size; luciferase light after 4 h
RE007 growth inh: less growth of the S. pombe RE007 Vpr strain. Potency, µM (highest dose often 92.2 µM), inactives show top-dose activity change, negative = less growth. S. pombe RE007 Vpr strain, BacTiter-Glo ATP luminescence, 24 h; control for the full effect not named in the record. AID 651644. 0.21% of 360,000 active; active = well fitted falling curve with a large enough effect; inconclusive = small, poorly fitted or top-dose-only effect; inactive = no such curve, though single readings can be large or run the other way;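 note: % is set by controls: 0 for no effect and ±100 for the full control effect; nearly all actives have a fitted effect of over 50% in size; the assay follows cell death caused by Vpr and the record does not say whether a fall means rescue or toxicity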
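Fission yeast strain RE007, carrying one chromosomally integrated HIV-1 vpr copy, was seeded at OD 0.01 in PMG+AL medium with 23 nL pinned compound. After 24 h at 30 °C and 99% humidity, viability was read by BacTiter-Glo luminescence.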
Cruzain inh noDet: blocks cruzain activity in detergent-free assay | P25779 | purified cruzain, Z-FR-AMC fluorescence, no detergent | Potency, µM, inactives show max response, negative = inhibition, hits mostly inhibitors | 2.3% of 200,000 active; active = well fitted curve in the direction sought with a large enough effect; inconclusive = small, poorly fitted or top-dose-only effect, or another doubt; inactive = no such curve, though single readings can be large; an effect the other way counts as inactive or inconclusive;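 note: plate controls were enzyme without inhibitor for no effect and buffer without enzyme for full effect; nearly all actives have a fitted effect of over 40% in size; top concentration of the series not given in the record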
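Detergent-free condition (0.00005% Triton X-100) in acetate buffer pH 5.5 with DTT. 1.5 nM enzyme and compound were pre-mixed 15 min, then 2 uM Z-FR-AMC substrate added; reaction progress from fluorescence change between first and third reads (60 s).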
* hit, by the source's call; ? = inconclusive; . = not tested or not shown; [ ] = remark or other dose. Unless noted, calls come from the whole dose curve; as a rule, active means well fitted rising curve with a large enough effect; inconclusive means small, poorly fitted or top-dose-only effect; inactive means no such curve, though single readings can be large or run the other way. Potency is the fitted concentration of half-maximal effect. Rows were taken by chance; any-hit rate near 4.6%.

SMILES | Lassa entry inh | NS1 inh | SARS PLpro yeast | MARV entry inh | Cruzain inh Det | StopGo reporter | RE007 growth inh | Cruzain inh noDet
CCOC(=O)/C=C/C(=O)OCC(=O)Nc1cccc(Cl)c1Cl | 0%[46.1 µM] | . | -2% | -18%[46.1 µM] | . | -23% | -27% | .
Cc1ccccc1Cn1cc(NC(=O)c2cc(-c3cccs3)on2)cn1 | -22% | -1% | 1% | -27% | 3.0% | -19% | -3% | -11%
COc1ccc(C(=O)N2CCCC(Nc3ccc(C)c(C)c3)C2)c(OC)n1 (stereo not given) | -17% | -10% | -6% | -27% | . | -14% | -14% | .
Cc1nc(NC(=O)c2cncc(Br)c2)ccc1Br | 25% | -6% | -1% | 7% | . | 20% | -9% | .
O=Cc1ccc(Oc2cccc(C(F)(F)F)c2)nc1 | 11%[46.1 µM] | . | -1% | 17%[46.1 µM] | . | 7% | 4% | .
CN(C)C(CNC(=O)C1CCN(S(=O)(=O)c2ccccc2C(F)(F)F)CC1)Cc1ccccc1 (stereo not given) | 5% | . | 9% | -27% | . | -12% | -18% | .
O=C(NCC(c1ccc(Cl)cc1)N1CCOCC1)c1ccccc1F (stereo not given) | -4%[46.1 µM] | . | . | -3%[46.1 µM] | -0.9% | -11% | . | -3%
COc1ccc(OC)c(NC(=O)CCCNC(=O)Cn2cnc3sc(C)c(C)c3c2=O)c1 | 20% | -22% | 1% | -1%[46.1 µM] | . | 0% | -13% | .
COc1ccc(NC(=O)C2=C(C)C(=O)OC23CCN(C(C)C)CC3)cc1Cl | 18%[46.1 µM] | . | . | . | -1.7% | 11% | . | -17%
O=C(Cc1ccccc1)N/N=C/c1ccc[nH]1 | . | -2% | 1% | . | . | -16% | 28% | .
CCOc1ccccc1NC(=O)C(=O)N/N=C/c1cc(Br)ccc1O | 1.6µM* | . | 7% | 2.5µM* | . | -21% | 3% | .
CS(=O)(=O)N(CC(N)=O)c1ccc2c(c1)OCO2 | 18% | 5% | 0% | -22% | 3.3% | 2% | -17% | -10%
CCOc1cccc(-c2cc(C(=O)NN)[nH]n2)c1 | 6% | 10% | 0% | 3% | . | 3% | -3% | .
COc1cc(/C=C2/CC/C(=C/c3ccc(O)c(OC)c3)C2=O)ccc1O | . | ? | -1% | . | . | -4% | 21% | .
CC1CN(C(=O)COC(=O)/C=C/c2cccc([N+](=O)[O-])c2)CC(C)O1 (stereo not given) | ? | . | 1% | ? | . | -23% | -20% | .
O=C(O)COc1ccccc1C(Nc1cccnc1)c1cc(Cl)c2cccnc2c1O (stereo not given) | 27%[46.1 µM] | . | ? | 17%[46.1 µM] | . | -6% | 13% | .
CCOc1ccc(C(=O)NC2CCCCCCC2)cc1 | ? | . | . | ? | . | -7% | -4% | .
CCOc1ccc(NC(=O)Cn2c(C)cc3ccccc3c2=O)cc1 | 0%[46.1 µM] | . | . | ? | 0.2% | -13% | . | -10%
O=C(O)[C@H]1CCCN1C(=O)c1ccccc1N1C(=O)[C@@H]2Cc3c([nH]c4ccccc34)C(c3cccc(Cl)c3)N2C1=O (stereo not given in full) | . | ? | 2% | . | . | -18% | -1% | .
COCCNc1ccc(-c2nc(-c3ccco3)no2)cc1[N+](=O)[O-] | 2%[46.1 µM] | . | . | -5%[46.1 µM] | -2.6% | 29% | . | 3.2µM*
COCCCNCCOCCOc1ccccc1-c1ccccc1 | ? | ? | -12% | ? | 3.2% | 12% | 6% | -8%
CC(C)OC(=O)c1ccc(N2CCN(c3ccc(F)cc3)CC2)nc1 | . | -4% | 1% | . | . | ? | -15% | .
CCOC(=O)N1CCN(C(=S)Nc2ccc(C)cc2)CC1 | -2% | 3% | -7% | ? | -1.0% | -13% | -4% | 3%
CN(C)c1nc(N)nc(-c2nc3ccccc3s2)n1 | 17% | -7% | 1% | ? | 5.3% | . | 1% | 1%
CSCC[C@H](NC(=O)N1CCn2c1nc1ccccc12)C(=O)N1CCCCC1 | . | -18% | 1% | . | . | -5% | 4% | .
CC(=O)Nc1cccc(NC(=O)CSc2nnnn2C(C)C)c1 | 13% | 4% | 2% | -8% | 8.0% | -12% | -4% | -5%
Fc1ccccc1CN1CCN(c2ccc(Cl)cc2)CC1 | . | 0% | -3% | . | . | -19% | 0% | .
COc1ccc(NS(=O)(=O)c2cc(NC(=O)CCc3ccccc3)ccc2N2CCOCC2)cc1 | -23% | . | . | ? | . | 60%[activator] | -2% | .
Cn1cc(S(=O)(=O)N2CCCC2)cc1C(=O)NCc1ccc(F)cc1 | . | 7% | 4% | . | . | -22% | 9% | .
Cc1cc(CNC(=O)CC2C(=O)NCCN2CC(c2ccccc2)c2ccccc2)on1 (stereo not given) | 0% | 10% | 1% | . | . | 7% | 0% | .
Cc1oc(-c2ccc(C(=O)NCCC(C)C)cc2)nc1CS(=O)(=O)c1ccccc1 | -6%[46.1 µM] | . | . | . | -3.2% | -3% | . | -10%
Cc1cc(NC(=O)C(=O)NCCN2CCN(C(=O)c3cccs3)CC2)ccc1Br | -1% | -3% | 10% | 18%[46.1 µM] | -10% | ? | -19% | 9%
O=C(c1cc2ccccn2n1)N1CCC2(CC1)OCCO2 | 26% | 7% | 0% | 0% | -0.1% | 23% | -9% | -5%
CN(C)S(=O)(=O)c1cccc(C(=O)Nc2cc3c(cc2C(=O)O)OCCCO3)c1 | . | 5% | 1% | . | . | 54%[activator] | -6% | .
CCCc1nc2nc(C)c(NS(=O)(=O)c3ccc([N+](=O)[O-])cc3)c(=O)n2[nH]1 | 26% | 3% | 2% | 1%[46.1 µM] | . | -9% | 4% | .
COc1ccc(C2(C)NC(=O)N(CC(=O)Nc3ccc(C)cc3Br)C2=O)cc1OC (stereo not given) | -1%[46.1 µM] | 1% | 2% | -15%[46.1 µM] | . | -6% | -8% | .

Some of the entries so far, with two lines to a compound:
Below each compound: Lassa entry inh	NS1 inh	SARS PLpro yeast	MARV entry inh	Cruzain inh Det	StopGo reporter	RE007 growth inh	Cruzain inh noDet
> CS(=O)(=O)N(CC(N)=O)c1ccc2c(c1)OCO2
 : 18%	5%	0%	-22%	3.3%	2%	-17%	-10%
> Cc1cc(CNC(=O)CC2C(=O)NCCN2CC(c2ccccc2)c2ccccc2)on1 (stereo not given)
 : 0%	10%	1%	.	.	7%	0%	.
> Fc1ccccc1CN1CCN(c2ccc(Cl)cc2)CC1
 : .	0%	-3%	.	.	-19%	0%	.

The results go on.
SMILES | Lassa entry inh | NS1 inh | SARS PLpro yeast | MARV entry inh | Cruzain inh Det | StopGo reporter | RE007 growth inh | Cruzain inh noDet
Cn1c(=O)[nH]c(=O)c2c1nc(CN1CCN(c3ccccc3F)CC1)n2CC(N)=O | . | 3% | -1% | . | -2.2% | -12% | -13% | -3%
O=C(CCN1CCN(c2ccccc2)CC1)Nc1ccccc1 | . | -16% | 0% | . | . | -7% | 1% | .
CCNC(=S)SCCOc1ccccc1C | -3% | -18% | ? | ? | -8.4% | 8% | 8% | -14%
Cc1[nH]c2ccccc2c1CCNCc1cccnc1 | . | -16% | -5% | . | . | -15% | -9% | .
O=C1c2ccccc2C(Nc2ccc(S(=O)(=O)N3CCCCCC3)cc2)N1c1ccccn1 (stereo not given) | . | 11% | -1% | . | -4.2% | -12% | 2% | 2%
CO/N=C/c1c(C(=O)OC)nn(-c2ccccc2)c1Cl | 0% | -3% | 0% | -1% | . | -21% | -13% | .
CCOc1ccc(N(CC)S(=O)(=O)N2CCCC(C(=O)Nc3ccc(C(C)=O)cc3)C2)cc1 (stereo not given) | 24%[46.1 µM] | . | . | . | -2.4% | ? | . | -1%
CN(/N=C/c1ccc2c(c1)OCO2)c1ccccc1 | ? | -12% | -56% | ? | -5.0% | 37%[activator] | -13% | -2%
COc1cc(/C=N/Nc2ccc(Cl)c(C(=O)O)c2)ccc1OC(=O)c1cccs1 | -24% | -19% | -5% | -19%[46.1 µM] | . | -22% | 14% | .
CCOC(=O)C1CCCCN1C(=O)CCn1nnnc1CN1CCOCC1 (stereo not given) | . | -4% | 4% | . | . | 1% | -5% | .
COc1ccccc1CN(C)C(=O)c1cccc(S(=O)(=O)N2CCc3ccccc3C2)c1 | -22% | . | -6% | ? | . | 0% | -11% | .
COc1ccc(-c2nc(N)ncc2-c2csc(C)n2)c(O)c1 | -1% | -4% | 0% | ? | -0.1% | . | 7% | -12%
COc1ccc(S(=O)(=O)N(Cc2nc(-c3ccc(C)cc3)no2)C2CCCCC2)cc1 | -23%[46.1 µM] | . | . | 3%[46.1 µM] | -4.7% | 0% | . | -10%
O=S1(=O)CC(O)C(NCc2ccco2)C1 (stereo not given) | 0% | -2% | -4% | 5% | 1.9% | 0% | -3% | -3%
COc1cc(C(=O)NNC2=NC(C)(C)Cc3cc(C)c(C)cc32)cc(OC)c1OC | -6% | 10% | 2% | -12% | 3.6% | 0% | -10% | -2%
Cn1c(=O)cc(SCC(=O)NCCc2ccc(Cl)cc2)c2cc(Cl)ccc21 | 9%[46.1 µM] | . | . | ? | -0.5% | -17% | . | 5%
CCc1ccc(N2CC(C(=O)Nc3nnc(CC)s3)CC2=O)cc1 (stereo not given) | -5% | -1% | 7% | 1% | -0.7% | -7% | -12% | 19%
CCN1C(=O)/C(=C2\C=Cc3cc(C)ccc3N2CC)OC1=S | 0% | -19% | 2% | 0% | -2.5% | 0% | -10% | -10%
O=[N+]([O-])c1ccccc1OCC(O)CN1CCN(CC(O)COc2ccccc2[N+](=O)[O-])CC1 (stereo not given) | . | -13% | 0% | . | . | 1% | -8% | .
O=C(CCC(C(=O)O)N1C(=O)c2ccccc2C1=O)Nc1ccccc1 (stereo not given) | -5% | . | . | ? | . | -1% | 1% | .
CCc1cc(=O)oc2c(C)c(OCC(=O)N3C[C@H]4C[C@@H](C3)c3cccc(=O)n3C4)ccc12 | . | -3% | -2% | . | . | -3% | -18% | .
